# Menin-MLL FL inh: qHTS Assay for Inhibitors Targeting the Menin-MLL Interaction in MLL Related Leukemias: Competition With Fluorescein Labeled MLL-derived Peptide | Fluorescence polarization, fluorescein-MLL peptide displacement from menin | FP activity change, % at 61.4 µM | 290,000 tested, under 10 active | AID 1766, 2009; inconclusive = falling polarisation curve, or a change in total fluorescence; inactive = total fluorescence flat and polarisation flat or rising; no compound was filed as active; the % refers to the polarisation; negative = inhibition;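 note: % of control where 0% means no effect; inhibitors lower the polarisation; unlabelled MLL peptide was the positive control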
# Sfp PPTase inh: qHTS Assay for Inhibitors of Bacillus subtilis Sfp phosphopantetheinyl transferase (PPTase). Biochemical Sfp PPTase activity, qHTS. hit rate 3.5% among 310,000. Potency, µM, for the others: max response, negative = inhibition, hits mostly inhibitors; active = well fitted inhibition curve with a large enough effect; inconclusive = small, poorly fitted or top-dose-only effect, or another doubt; inactive = no such curve, though single readings can be large or run the other way;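 note: the enzyme is Sfp with the accession as filed and its product quenches rhodamine fluorescence; potency is the fitted concentration of half-maximal effect; 0% = enzyme reaction without inhibitor and -100% = no enzyme wells; top concentration of the series not given in the record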
#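 Reaction rates are the 30-min fluorescence difference (ex 525, em 598 nm) in wells containing 15 nM Sfp, 5 uM rhodamine-CoA and 12.5 uM BHQ-2-YbbR at pH 7.6 with 10 mM MgCl2.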
# D2 ag: Beta-Arrestin HTS for Positive Allosteric Modulators of the Human D2 Dopamine Receptor: Agonists. DiscoveRx PathHunter D2 beta-arrestin, luminescence, 90 min; 100% = 57 uM dopamine signal. activation, % (concentration not given with the values). hit rate 0.084% among 360,000. AID 624465, 2012; in the data active = activation above about 40%; inconclusive = about 15% to 40%; inactive = below about 15%; note: compound concentration not given in the record; the text of the record calls up to 30% inactive
# Target sequence (P14416 whole entry, looked up): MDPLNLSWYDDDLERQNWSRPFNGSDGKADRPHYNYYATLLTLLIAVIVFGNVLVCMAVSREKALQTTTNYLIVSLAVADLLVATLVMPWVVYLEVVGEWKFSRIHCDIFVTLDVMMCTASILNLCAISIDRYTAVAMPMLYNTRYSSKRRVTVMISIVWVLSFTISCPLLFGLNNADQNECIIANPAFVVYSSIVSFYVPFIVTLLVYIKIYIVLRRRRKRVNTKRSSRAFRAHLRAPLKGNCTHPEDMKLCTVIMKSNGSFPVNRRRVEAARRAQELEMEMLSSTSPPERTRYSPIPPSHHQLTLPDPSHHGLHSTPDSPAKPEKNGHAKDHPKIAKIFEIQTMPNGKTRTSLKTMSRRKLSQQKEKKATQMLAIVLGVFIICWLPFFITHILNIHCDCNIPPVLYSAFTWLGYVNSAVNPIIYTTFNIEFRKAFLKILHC
#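 DiscoveRx PathHunter D2 beta-arrestin cells (2,100/well) attached overnight, then compound-stimulated 90 min at 37 C in HBSS/10 mM HEPES/0.1% Tween-20 buffer; beta-galactosidase complementation read by luminescence after 1 h at ambient temperature. Dopamine 57 uM final (EC100) as control.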
# gsp agonist: qHTS for Agonist of gsp, the Etiologic Mutation Responsible for Fibrous Dysplasia/McCune-Albright Syndrome: qHTS; Potency, µM (highest dose often 76.9 µM), inactives show at the highest dose activation (cAMP increase), hits mostly activators; hit rate 0.13% among 340,000; gsp mutant cells, cAMP HTRF, 30 min; control for the full effect not named in the record; AID 624287, 2012; active = well fitted activation curve with a large enough effect; inconclusive = small, poorly fitted or top-dose-only effect, or another doubt; inactive = no such curve, though single readings can be large or run the other way; cell line not stated here;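 note: phosphodiesterase inhibitor Ro 20-1724 added with compounds to block cAMP breakdown; potency is the fitted concentration of half-maximal effect; nearly all actives have a fitted effect of over 60% in size; about a fifth of the inactives were tested at one dose only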
#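 Cells stably selected in G418 were plated at 2000/well, grown 16-24 hr, then given compounds in DMSO with the PDE inhibitor […] (300 uM solution added) for 30 min at 37C; cAMP was read by HTRF.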
# ClpP mod: qHTS Assay for Activators of ClpP | ATP-dependent Clp protease proteolytic subunit (Bacillus subtilis (strain 168)), P80244 | purified B. subtilis ClpP, FRET peptide cleavage, 20 min | Potency, µM (titrated, usually from 57.5 µM), for the others: at the top dose activity change, negative = active | hit rate 1.9% among 340,000; active = well fitted falling curve with a large enough effect; inconclusive = small, poorly fitted or top-dose-only effect; inactive = no such curve, though single readings can be large or run the other way; note: potency is the fitted concentration of half-maximal effect; the source files actives as falling curves though it sought activators and does not explain the sign; nearly all actives have a fitted effect of over 65% in size; many hits overshoot -100%
# Target sequence (P80244 whole entry, looked up): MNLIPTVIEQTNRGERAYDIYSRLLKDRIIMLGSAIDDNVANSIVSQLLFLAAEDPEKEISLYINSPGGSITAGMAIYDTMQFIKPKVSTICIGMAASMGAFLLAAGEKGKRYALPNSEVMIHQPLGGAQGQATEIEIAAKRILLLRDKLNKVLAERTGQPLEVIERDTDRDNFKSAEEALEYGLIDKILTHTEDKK
#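 FRET quenching reversal measured ClpP activation: 10 microg/mL B. subtilis ClpP at pH 8 with the FRET-FV decapeptide, read at 430 nm after 320 nm excitation. The 20-min minus 0-min signal was scaled between DMSO/no-enzyme wells and ADEP (5.8 microM final).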
# gsp antag: qHTS for Antagonists of gsp, the Etiologic Mutation Responsible for Fibrous Dysplasia/McCune-Albright Syndrome: qHTS; gsp-mutant cells, cAMP HTRF, 30 min; control for the full effect not named in the record; Potency, µM (titrated, usually from 76.9 µM), for inactives: top-dose activity change, negative = inhibition, hits mostly inhibitors; hit rate 0.4% among 340,000; AID 624288, 2012; active = falling curve of any shape with a large fitted effect; inconclusive = falling curve, mostly with a smaller effect; inactive = flat or rising curve; cell line not stated here;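 note: intracellular cAMP measured with PDE inhibitor Ro 20-1724 present during compound exposure; potency is the fitted concentration of half-maximal effect; % is set by controls: 0 for no effect and ±100 for the full control effect; nearly all actives have a fitted effect of over 65% in size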
#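 HTRF cAMP read-out (cAMP-d2 plus anti-cAMP antibody-K in lysis buffer, 30 min RT). Before lysis, cells are exposed to compounds with […] for 30 min at 37C in DPBS containing Ca/Mg, BSA and Tween 20.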
# PINK1 expr mod: A Quantitative High throughput Screen to Identify Chemical Modulators of PINK1 Expression | hit rate 0.2% among 410,000 | PINK1 immunofluorescence, high-content cytometry, 24 h | AID 624263, 2012 | Potency, µM (titrated, usually from 76.6 µM), inactives show at the top dose activation (PINK1 increase), most hits filed as activators; active = well fitted activation curve with a large enough effect; inconclusive = small, poorly fitted or top-dose-only effect; inactive = flat fitted curve, though single readings scatter; cell line not stated here;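 note: potency is the fitted concentration of half-maximal effect; % of control where 0% means no effect; nearly all actives have a fitted effect of over 65% in size; a mitochondrial uncoupler was the plate control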
#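 Stable cell line treated 24 h with compounds at 5 concentrations (CCCP controls), then fixed and immunostained for PINK1 plus nuclear and cell stains; PINK1 immunofluorescence quantified by laser-scanning microplate cytometry.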
# * marks the source's active call; other numbers are inactive results; ? = inconclusive; . = not tested or not shown; [ ] = dose if it differs, or a comment. This is a random part of the collection. Share with any hit: about 5.1%.
SMILES,Menin-MLL FL inh,Sfp PPTase inh,D2 ag,gsp agonist,ClpP mod,gsp antag,PINK1 expr mod
COC(=O)C(Cc1c[nH]c2ccccc12)NC(=O)CCNC(=O)c1ccco1 (stereo unspecified),.,.,-3.3,2%,-2.1%,.,0.2%
CCCCn1c(N)c(N(CCOC)C(=O)CN(C)S(=O)(=O)c2ccc(Cl)cc2)c(=O)[nH]c1=O,.,12%,-0.7,-102%[inhibitor],2.1%,6%,0.5%
Cc1nc2ccccc2c(=O)n1/N=C/C=C/c1ccccc1,1.1,8%,1.5,-14%[15.4 µM],-1.6%,-9%,6.1%
Cc1cc(C)c(C#N)c(SCc2nc3ccccc3c(=O)[nH]2)n1,4.7,1%,1.8,16%[15.4 µM],.,14%,11%
CCCC1=NN2C(=N)/C(=C\c3cc(C)n(-c4cc(C)cc(C)c4)c3C)C(=O)N=C2S1,.,20µM*,2.9,-20%,-4.2%,-30%,2.5%
CS(=O)(=O)NCCSCc1ccc(Cl)cc1,2.7,5%,-2.8,1%,1.2%,-10%,0.6%
CC1=CC(=C(C#N)c2nc3ccccc3s2)C=C(C)N1Cc1ccco1,?,-5%,-7.1,8%,-0.1%,0%,1.2%[38.3 µM]
c1ccc(CN(Cc2ccco2)C(c2ccncc2)c2nnnn2C2CCCC2)cc1 (stereo unspecified),?,-27%,2.1,?,?,3%,0.3%[38.3 µM]
Nc1ccc2c(c1)C(=Cc1cccnc1)c1ccccc1-2,.,.,-2.1,-1%[15.4 µM],-3.7%,-16%,-0.6%
CCN(C(=O)c1cc2c(=O)[nH]c3ccc(C)cc3c2s1)c1ccccc1C,0.7,21%,-7.5,-10%[15.4 µM],.,9%,5.7%
COc1ccc(OCCOC(=O)CNC(=O)c2ccc(Cl)cc2Cl)cc1,.,.,-8.2,3%,1.0%,-10%,-0.3%
CCC(=NNS(=O)(=O)c1ccc(C)cc1)c1ccccc1,.,.,7.6,?,-2.0%,.,-0.9%
O=C(C[n+]1ccccc1)Nc1nc2ccccc2s1,1.5,-16%,-3.9,11%,1.1%,4%,1.1%
Cc1cc(N2CCN(C/C=C/c3ccccc3)CC2)n2ncnc2n1,0.5,5%,2.7,-19%,0.7%,-19%,.
COc1ccccc1NC(=O)CSc1nnnn1-c1ccc(C(=O)O)cc1,-5.8,-10%,-2.2,-17%[15.4 µM],-12%,5%,-0.8%
CC(C)(C)c1ccc(COC(=O)CNC(=O)CNC(=O)Cc2ccccc2)cc1,1.2,23%,-1.1,1%,0.9%,-20%,.
COc1ccc(-c2nsc(C(=O)N(c3ccc(F)cc3)C(C(=O)NC3CCCC3)c3ccc(OC)cc3)c2N)cc1 (stereo unspecified),-3.0,25%,1.0,1%,16µM*,10%,-4.3%
O=C(COC(=O)CCCNC(=O)c1ccc(Cl)cc1)NCc1ccccc1Cl,4.6,21%,-3.6,-25%,-3.5%,-7%,-0.8%
CC(C)c1nnc(NC(=O)c2cccnc2)s1,-0.5,-2%,2.6,-11%,-2.2%,7%,2.1%
CC(C)C[C@H](NC(=O)N1c2ccccc2NC(=O)[C@@H]1C(C)C)C(=O)N[C@@H](Cc1ccccc1)C(=O)O,-0.2,0%,-0.5,.,-1.1%,8%,0.1%
Cc1onc(-c2ccccc2)c1C(=O)Nc1nnc(CC(C)C)s1,0.2,3%,2.1,?,.,0%,2.7%
O=C(Nc1ccc(Cl)cc1)C1Cc2c(-c3cccc(F)c3)ccnc2O1 (stereo unspecified),.,.,-1.8,.,-4.6%,.,?
CC(=O)c1cc(-c2ccccc2)n(CC(=O)NCc2cccs2)c1C,0.7,19%,-5.3,?,-16%,3%,13%
CN1CCN(c2nc(-c3ccc(Cl)cc3)nc3ccccc23)CC1,1.6,4%,-1.6,8%[15.4 µM],1.0%,23%,1.8%
Fc1cccc(Cc2c(-c3ccco3)nc3c(Cl)cc(C(F)(F)F)cn23)c1,.,.,-6.8,.,-7.1%,.,1.8%
COc1cccc(C(O)c2ncc(-c3ccccc3Cl)[nH]2)c1 (stereo unspecified),.,.,0.5,.,-0.6%,.,-0.4%
C[C@H](CO)N1C[C@H](C)[C@@H](CN(C)S(C)(=O)=O)Oc2ccc(NC(=O)NC3CCCCC3)cc2C1=O,.,.,1.9,.,-0.4%,6%,-0.5%
CCN1CCN(c2ccc(NC(=O)c3cccnc3)cc2Cl)CC1,-1.7,9%,-3.5,-31%[inhibitor],-2.1%,18%,-1.7%
CCOC(=O)N1CCC(Nc2c(OCC)c(=O)c2=O)CC1,5.0,11%,-3.5,-1%,0.0%,11%,-0.2%
O=C(Cc1ccc(S(=O)(=O)N2CCOCC2)s1)N1CCN(S(=O)(=O)c2cccc(Cl)c2)CC1,.,.,2.6,-6%[15.4 µM],-13%,-13%,1.5%
CC(C)(C)CC(=O)Nc1ccc(Nc2ccccc2)cc1,6.3,-1%,-1.3,-34%[inhibitor],-1.5%,-6%,-1.4%
COC(=O)c1cc(Cl)c(NS(=O)(=O)c2ccccc2)cc1OC,0.1,8%,-2.1,-2%,-11%,-20%,-1.1%
Cc1cc(NS(=O)(=O)c2ccccc2)c([N+](=O)[O-])cc1C,1.0,-9%,-2.3,18%,-2.1%,0%,-1.0%
COC(=O)c1ccc(COc2cc(O)c3c(c2)OC(C)(C)CC3=O)cc1,-0.9,?,0.2,-2%,-1.4%,?,1.9%
Cc1ccccc1/C=N/N1CCN(c2ccccc2)CC1,6.4,-3%,-2.0,10%,-0.7%,5%,4.2%
COc1ccc(-n2cnnc2SCC(=O)Nc2cc(S(=O)(=O)N3CCCCC3)ccc2C)cc1,4.4,6%,-1.5,16%[15.4 µM],-5.0%,0%,2.7%
COc1cccc(CN(C)C(=O)c2cccc(S(=O)(=O)N3CCN(c4ccccc4)CC3)c2)c1OC,.,.,-3.2,?,-2.4%,?,1.7%
CCOC(=O)[C@H]1[C@H]2COc3ccc(Cl)cc3[C@@H]2N2C(=O)[C@@H](CO)NC(=O)[C@@]12C,.,.,-12,-57%[inhibitor],2.3%,-8%,-0.3%
CCOC(=O)N1CCN(C(=O)c2ccccc2NC(=O)c2ccc(OC)cc2)CC1,-0.7,7%,-2.6,7%,-0.3%,-1%,5.6%[38.3 µM]
O=C(c1ccc(=O)oc1)N1CCCc2ccccc21,?,?,-3.6,-4%,-16%,-26%,-1.0%
CCc1cccc(CC)c1C(O)c1cccnc1 (stereo unspecified),-2.2,-4%,0.3,-16%,0.5%,-15%,0.0%
CC(C)(C)c1ccc(N/N=C(\C#N)S(=O)(=O)C(C)(C)C)cc1,3.1,-6%,1.1,-36%[inhibitor],.,?,40µM*
O=C(OCc1cn([C@@H]2CN(CC3CCCCC3)[C@@H](c3ccc(Cl)cc3)C[C@H]2O)nn1)c1ccccc1,.,.,-7.1,11%,2.7%,.,1.9%
CC(=O)Nc1ccc(C(=O)CSc2nnc(C)o2)cc1,0.5,-9%,-1.7,-1%,-1.4%,-5%,1.2%
O=C(O)c1cccc(CN2C(=O)S/C(=C/c3cccc([N+](=O)[O-])c3)C2=O)c1,-3.6,71µM*,-1.1,?,-1.0%,20µM*,2.3%
O=C(Nc1cccnc1Cl)c1cc(-c2ccc(Br)cc2)on1,4.1,12%,-8.7,10%[15.4 µM],0.9%,-8%,0.2%
CC1CCN(C(=O)COC(=O)c2cc3ccccc3cc2O)CC1,5.2,-9%,-0.8,-10%,-5.4%,-14%,-3.0%
Cc1ccccc1NC(=O)CSc1nnc(Cc2cccn2C)n1-c1ccc(F)cc1,2.6,-25%,-0.7,5%,8.7%,-2%,0.3%
COc1ccc(CCNC(=O)c2ccc(CS(=O)Cc3ccc(C)cc3)o2)cc1OC (stereo unspecified),-3.2,13%,0.8,-13%,-1.2%,-1%,2.0%
COc1ccc(/C=N/Nc2nc(-c3ccc(Cl)cc3)cc(C(F)(F)F)n2)cc1OC,3.0,4%,11,-2%,7.7%,-22%,-1.7%
Cc1ccc(NC(=O)Nn2cnnc2)cc1Cl,.,7%,-0.5,27%,0.3%,6%,0.2%
Cc1noc(C)c1-c1ccc(C(=O)NCc2cccs2)c2occc12,.,.,-3.5,.,-11%,.,6.4%
COc1cc(NC(=O)C2CC2)c(OC)cc1NC(=O)c1ccco1,.,7%,-1.1,15%,.,-10%,-0.4%
COc1cc(/C=N/Nc2nc(C)cc(=O)[nH]2)cc(OC)c1O,0.1,?,?,?,-6.7%,-7%,1.8%
COc1ccccc1NCC(=O)N/N=C/C=C/c1ccccc1,1.8,-19%,-6.5,2%,-2.9%,-6%,1.4%
C=CCn1c(SCC(=O)Nc2ccccc2-c2ccccc2)nc2cc(C(=O)O)ccc2c1=O,3.3,9%,-3.0,0%,0.2%,?,2.7%
O=c1c(-c2ccccc2Cl)coc2c(CN3CCCCC3)c(O)ccc12,6.2,4%,-2.9,-35%[inhibitor],3.1%,-4%,-0.5%
O=C(CSc1ccccc1)Nc1ccc2sccc2c1,0.8,14%,-4.5,4%,1.2%,-6%,1.7%
Cc1ccc(C(=O)NCCCn2ccnc2)cc1C,.,.,-0.1,-10%,-0.6%,-18%,0.8%
COc1ccccc1C(=O)Nc1ccc(Nc2ccccc2)cc1,.,.,-1.5,-3%[15.4 µM],.,-2%,-1.2%
COc1ccccc1C(=O)NCCC(=O)Nc1ccc(S(=O)(=O)N2C(C)CCCC2C)cc1 (stereo unspecified),.,.,5.2,?,1.8%,-16%,-0.8%
COc1ccc(-c2nnc(SCC(=O)NC3CCCC3)n2C)cc1,2.5,14%,-6.9,-1%[15.4 µM],-0.9%,17%,0.6%

# Source: PubChem
